# Calb FLC = affects C. albicans growth with fluconazole; growth inhibition, % (concentration not given with the values); AID 1979; C. albicans CaCi-2 (fluconazole-resistant clinical isolate) + fluconazole, Alamar Blue growth, 48 h; 300,000 compounds, 0.57% hits;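 active means most replicates above 75%; inconclusive means exactly half above 75%; inactive means most below 75%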;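 further: all wells also contain fluconazole at 8 µg/ml as a sub-toxic cotreatment; 0% = median of DMSO wells and 100% = median of geldanamycin control wells; wells of about 8 µL received 7.5 nL stock; the first replicate is given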
# MLL AF4-AF9 inh = inhibitors of human MLL-AF4/AF9 interaction; AID 651704; inhibition, % at 10 µM; P42568; AlphaScreen, biotin-AF4 peptide binding to FLAG-AF9; 350,000 compounds, 0.47% hits;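 active means every replicate reaching a set inhibition limit, whatever the replicate mean, cut at about 25% in these data; inconclusive means mean inhibition reaches that limit but some replicates miss it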;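 further: 0% = plate neutral control median and 100% = total signal loss; the record names both 10 and 1 µM as test concentration; the first replicate is given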
# Target sequence (P42568 whole entry, looked up): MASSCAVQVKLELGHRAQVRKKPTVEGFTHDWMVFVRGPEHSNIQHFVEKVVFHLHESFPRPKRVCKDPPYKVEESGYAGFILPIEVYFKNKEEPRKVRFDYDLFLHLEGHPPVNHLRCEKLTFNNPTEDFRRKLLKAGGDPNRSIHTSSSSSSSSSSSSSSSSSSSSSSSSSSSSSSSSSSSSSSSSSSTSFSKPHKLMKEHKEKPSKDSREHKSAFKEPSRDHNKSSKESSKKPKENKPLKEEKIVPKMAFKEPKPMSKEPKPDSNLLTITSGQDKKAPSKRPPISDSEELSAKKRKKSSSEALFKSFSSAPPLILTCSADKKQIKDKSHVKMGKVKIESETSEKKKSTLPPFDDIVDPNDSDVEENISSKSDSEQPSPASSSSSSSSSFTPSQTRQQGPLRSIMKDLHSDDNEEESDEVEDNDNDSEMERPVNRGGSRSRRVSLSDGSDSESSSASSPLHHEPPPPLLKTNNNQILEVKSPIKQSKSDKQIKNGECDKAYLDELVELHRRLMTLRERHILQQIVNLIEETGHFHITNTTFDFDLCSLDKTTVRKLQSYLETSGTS
# RanGTP-Imp inh = inhibitors of RanGTP-importin-beta interaction, primary screen, biochemical, FRET, CFP-Ran, YFP-importin-beta, homogeneous. cell-free CFP-Ran/YFP-importin-beta FRET ratio. inhibition, % (no concentration beside the values). AID 2216. 300,000 compounds, 1.1% hits;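 active means most replicates above 15%; inconclusive means exactly half above 15%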;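 further: 0% = DMSO wells and 100% = Ran loaded with GDP instead of GTP; wells of about 40 µL received 100 nL stock; the first replicate is given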
# Vif TR-FRET = inhibitors of Vif binding to APOBEC3G peptide, primary screen, biochemical, TR-FRET, GST-Vif 1-94, biotin-A3G peptide, dose response retest (AID 1117319); TR-FRET GST-Vif / biotin-A3G peptide binding; higher % means a stronger effect; test concentration not given here; strong numbers were not always called active; one-dose inhibition, %; IC50 in µM for titrated hits; 260,000 compounds, 0.57% hits;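 active means above the screen mean plus three standard deviations and confirmed in dose response; inconclusive means results disagree or hit not tested in dose response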;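 further: Vif residues 1-94 fused to GST binding biotinylated APOBEC3G peptide 110-148; 0% = full assay without inhibitor and 100% = GST in place of GST-Vif; retest series ran down from 100 µM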
# LANA-H2A inh = blocks KSHV LANA binding to histone H2A/H2B; Q9QR71; 320,000 compounds, 0.6% hits; inhibition, % (concentration not given with the values); cell-free LANA-H2A/H2B peptide, fluorescence polarization; AID 2629; in the data active means inhibition mostly above about 10%, no sharp cut-off; inactive means mostly below about 6.7%;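 further: stock transfer was 7.5 nL into about 10 µL; 0% = median of vehicle wells and 100% = median of positive control wells; one replicate is shown; the record names a cut of 25% in any replicate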
# Beta apoptosis = beta cell apoptosis inhibition; protection from apoptosis, % (test concentration not listed); 300,000 compounds, 0.8% hits; AID 435005; INS-1E cytokine-induced death, ATP luminescence, 48 h; percent of positive-control rescue, neutral wells zero;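 active means all replicates at 75% or more, or half of them and the mean; inconclusive means half reach 75% but not the mean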;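 further: 0% = cytokine-treated negative control wells and 100% = positive control rescue; higher means more ATP so stronger rescue from cytokine killing; wells of about 40 µL received 100 nL stock; the first replicate is given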
# T cruzi inh = blocks replication of Trypanosoma cruzi. T. cruzi beta-gal in NIH3T3, luminescence, 90 h. AID 1885. inhibition, % (test concentration not listed). 300,000 compounds, 1.4% hits;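 active means mean inhibition across valid replicates above about 55%, limit read from the data; inconclusive means mean below that limit but half or more replicates reach it; inactive means mean below it, under half of replicates reach it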;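 further: signal also drops with host cell toxicity which is not excluded here; 0% = plate median of DMSO wells and 100% = zero luminescence signal; higher percent means less beta-gal luminescence so fewer parasites; stock transfer was 50 nL into about 50 µL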
# A1 inh = inhibitors of the anti-apoptotic protein A1, read as caspase activation. MEF A1-2A-BIM cells, Caspase-Glo 3/7 luminescence, 3 h; percent of clofoctol response, vehicle zero. caspase activation, % (no concentration beside the values). 330,000 compounds, 0.066% hits;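 active means over half of replicate activation scores above 10%, or exactly half above 10 with the replicate mean above 10; inconclusive means replicate mean below 10 yet half the replicates above 10; inactive means over half of replicates below 10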;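 further: wells of about 30 µL received 50 nL stock; many hits fall short of the cut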
# * hit, by the source's call; ? = inconclusive; · = no result given.
item	molecule	Calb FLC	MLL AF4-AF9 inh	RanGTP-Imp inh	Vif TR-FRET	LANA-H2A inh	Beta apoptosis	T cruzi inh	A1 inh
1	Cc1ccc(NC(=O)C2CCCN2C(=O)Oc2ccccc2)cc1C (stereo not drawn)	-3.5	·	-3.1	4.9%	1.8	·	1.4	-0.2
2	CCN(CC)C(=O)/C(=C/c1cccc([N+](=O)[O-])c1)NC(=O)c1ccco1	-0.9	2.7	1.3	-0.1%	-3.7	·	-3.0	-0.3
3	Cc1nc2ccc(NC(=O)c3cnc(Cl)c(Cl)c3)cc2s1	-6.3	-7.3	-0.5	·	5.4	-4.3	31.2	-6.1
4	Cc1ccc(NC(=O)CN2C(=O)S/C(=C\c3cc(C)n(-c4ccc(C(=O)O)cc4)c3C)C2=O)cc1	10.9	2.0	4.9	6.8%	-2.7	-7.8	-0.5	1.4
5	CC1Cc2cc(S(=O)(=O)CCC(=O)NC3CCCCC3)ccc2N1C(=O)C1CC1 (stereo not drawn)	-0.3	1.0	?	6.8%	3.4	-0.8	-18.7	2.1
6	CN(C)S(=O)(=O)c1ccc(C(=O)OCCN=C2NS(=O)(=O)c3ccccc32)cc1	-1.3	-4.6	?	·	0.8	-3.0	-6.4	0.7
7	CC(=O)Nc1ccc(OCC(O)Cn2c(C(C)C)nc3ccccc32)cc1 (stereo not drawn)	-1.0	-2.8	-0.2	-2.2%	-9.6	·	-15.9	1.9
8	Cc1ccc(NC(=O)COc2ccc(N(C)S(=O)(=O)c3ccc(F)cc3)cc2)cc1	·	-0.1	·	·	0.4	-5.3	·	-0.9
9	CC1(C)CC(CCNC(=O)c2ccc(-n3cnnn3)cc2)CC(C)(C)N1	-4.9	·	-1.5	-4.7%	1.5	-3.5	-12.9	0.4
10	Nc1cc(=O)[nH]c(SCC(=O)Nc2nc3ccc([N+](=O)[O-])cc3s2)n1	3.5	·	-0.6	?	-1.0	-2.4	-9.8	-1.7
11	CS(=O)(=O)c1ccc(C(=O)N(Cc2ccccc2)c2ccccc2)cc1	5.2	3.2	-4.5	·	2.0	-1.2	10.4	0.0
12	CC(C)Sc1nc(N)nc(-c2cccs2)c1C#N	52.0	·	-2.5	-12.1%	-0.2	10.0	10.8	0.5
13	CCN(CC(=O)NC(=O)Nc1ccccc1F)Cc1ccccc1	-3.0	-0.1	·	2.1%	-1.0	-3.7	-0.1	0.9
14	Brc1cccc(OCCCN2CCCCCC2)c1	-13.4	1.0	-3.3	3.4%	5.0	-1.9	11.6	0.5
15	CCNC(=O)NC(=O)COC(=O)CCCc1nc2ccccc2s1	5.4	0.1	1.0	·	-0.2	-3.5	-2.8	-1.8
16	COC(=O)Cn1c(CN2CCC(Cc3ccccc3)CC2)nc2c1c(=O)n(C)c(=O)n2C	-8.2	·	-0.7	10.3%	-5.9	·	21.5	0.3
17	COc1ccc(C2c3[nH]c4ccccc4c3CCN2C(=O)Cc2nonc2C)c(F)c1 (stereo not drawn)	?	-3.6	2.3	·	9.9	2.1	20.9	1.1
18	O=C(NCCNS(=O)(=O)c1ccc(Cl)cc1)c1cc(OCC(F)(F)F)ccc1OCC(F)(F)F	-2.2	·	-2.9	5.4%	-1.7	-8.3	-2.3	-0.6
19	O=S(=O)(NCc1csc(-c2ccccc2)n1)c1ccc(Cl)s1	7.1	4.0	-0.2	-3.5%	2.8	-7.2	4.4	-0.2
20	N/C(=N/O)C(c1ccccc1)c1ccccc1	-1.4	·	?	17.1%	-3.4	-0.3	11.1	-2.7
21	Cc1cccc2nc3c(nc12)CCCC3	-3.3	-16.3	-4.2	-0.2%	1.5	·	-6.6	0.9
22	COc1ccc(NC(=O)C(c2ccc(OC)cc2)N(C)C(=O)CNC(C)=O)cc1 (stereo not drawn)	1.7	·	1.2	5.3%	4.3	·	0.1	-1.0
23	Cc1ccc(CNC(=O)CN(C(=O)C2(C)CC(=O)N=C3C=CC=CN32)c2ccccc2)cc1 (stereo not drawn)	-5.5	-3.0	0.6	·	1.0	-1.1	-2.1	0.5
24	CCCN(CC(=O)Nc1ccccc1C)C(=O)c1ccc2[nH]c3c(c2c1)CC(C)CC3 (stereo not drawn)	·	5.2	·	-6.1%	0.3	8.1	·	0.2
25	Cc1nn(-c2ccc([N+](=O)[O-])cc2)c(N)c1-c1ccccc1	?	14.1	-6.1	-3.8%	1.5	·	14.6	-2.5
26	O=C(NCc1ccccc1Cl)c1ccc(CS(=O)(=O)c2ccccc2)o1	6.7	-2.8	4.5	·	0.1	-3.7	10.8	0.0
27	CCOC(=O)N1CCN(C(=O)CN(c2ccc(C)cc2)S(=O)(=O)c2c(C)noc2C)CC1	-1.1	·	2.1	-2.8%	-7.5	1.2	4.3	0.3
28	COc1ccc(S(=O)(=O)NCCN2CCOCC2)cc1[N+](=O)[O-]	0.9	0.2	2.5	·	5.2	-3.4	-4.5	0.9
29	CC(=O)Nc1ccc(S(=O)(=O)Nc2nc3ccccc3nc2-n2ccc(=NC(=O)c3ccccc3)cc2)cc1	-4.1	-0.5	0.5	-252.9%	-1.6	0.2	-6.0	0.5
30	CC(=O)NS(=O)(=O)c1ccc(NS(=O)(=O)c2ccc(F)cc2)cc1	-9.9	·	-1.3	10.8%	7.8	-0.7	6.3	0.8
31	Cc1cc(C)c2c(N)c3cccc(C)c3nc2n1	8.7	-8.6	126.0*	28.5%	-4.6	98.5*	57.6*	1.8
32	Cc1nc2c(C(=O)NCCc3ccccc3)c[nH]n2c(=O)c1Cl	-10.7	0.8	·	31.1%	6.4	-2.7	4.5	-0.5
33	COc1cccc(NC(=O)CSc2nnc(NC(=O)c3ccco3)s2)c1	23.2	-0.9	3.6	·	0.2	6.3	-1.2	-2.2
34	Cc1nn(-c2ccccc2Cl)c(Cl)c1/C=N/Nc1cccc(C(=O)O)c1	-1.8	·	4.6	·	9.2	-4.2	-4.7	-9.4
35	CC(c1ccccc1)n1c(-c2ccc(C(C)(C)C)cc2)n[nH]c1=S (stereo not drawn)	9.3	·	-4.4	·	-3.0	·	25.3	-0.2
36	ClCC1NCC(c2ccccc2Cl)c2c1[nH]c1ccccc21 (stereo not drawn)	9.7	11.4	5.9	7.3%	-2.7	-5.3	14.2	1.3
37	COc1ccc2[nH]c(C)c(CCNc3ccc(C(F)(F)F)cc3[N+](=O)[O-])c2c1	-2.8	·	-5.2	·	0.5	-8.2	43.7	-0.2
38	O=C(NCc1ccco1)C1CCC(N2C(=O)c3ccccc3C2=O)CC1 (stereo not drawn)	4.8	-16.7	-3.1	14.0%	23.3*	-10.3	3.5	0.3
39	O=C(CSc1nnnn1-c1cccc(F)c1)Nc1nc2ccccc2s1	3.1	·	-0.6	-5.6%	1.4	-0.2	7.9	-0.1
40	COc1ccc(N2CCN(c3oc(-c4ccccc4OC)nc3C#N)CC2)cc1	0.6	4.0	-2.8	15.0%	2.2	-2.3	4.6	-2.1
41	C=CCn1c(-c2cccc(S(=O)(=O)N(CC)CC)c2)n[nH]c1=S	-5.2	-6.0	5.1	-5.0%	-0.8	-4.8	-0.8	0.1
42	O=C1CC(=O)N(c2ccccc2)N1c1ccccc1	3.3	-3.0	3.2	22.4%	-1.7	2.4	-0.4	0.3
43	O=C(c1c(F)c(F)c(F)c(F)c1F)N1CCN(c2cccc(C(F)(F)F)c2)CC1	1.9	·	-0.1	-2.0%	0.1	8.2	8.4	-0.8
44	CCOC(=O)C(=CNc1ncccc1C)C(=O)OCC	-15.8	·	-0.8	0.4%	-0.5	-7.7	-6.9	-0.1
45	O=C(NCc1ccccc1Cl)C1CCCN(S(=O)(=O)c2cccc3nonc23)C1 (stereo not drawn)	-1.9	-4.2	1.2	·	-2.7	-2.2	0.5	0.9
46	Cc1cc(=O)[nH]c(SCC(=O)c2ccc(F)c(C)c2)n1	21.0	-1.6	8.0	·	0.0	1.4	-7.7	1.8
47	CC(C)CN(C(=O)CSc1nc2ccccc2c(=O)[nH]1)c1c(N)n(CC(C)C)c(=O)[nH]c1=O	·	-0.1	·	·	-2.5	-3.8	·	-0.8
48	CCN(/C(N)=N/c1nc(C)cc(C)n1)c1ccccc1	9.6	-2.3	2.1	27.3%	-0.2	-4.4	4.5	-1.0
49	Cc1ccc(NC(=O)Nc2ccc(Cl)cn2)cc1	-14.1	2.0	-0.8	·	·	·	-3.4	·
50	CC(C)(C)c1ccc(C(=O)NCCNC(=O)c2ccco2)cc1	-2.7	-1.0	2.3	·	4.9	·	-1.5	0.2
51	c1ccc(OCc2noc(CN3CC[C@@H]4CCCC[C@H]4C3)n2)cc1	-6.5	-1.5	-2.2	8.9%	-1.3	-4.9	-5.0	-0.3
52	CCC(N=c1cc(-c2ccc(OC)cc2)oc2ccc(C)cc12)C(=O)O (stereo not drawn)	18.8	·	2.6	-8.7%	5.7	0.7	2.1	-0.9
53	CCOc1ccccc1CN1CCNC(=O)C1CC(=O)NC1CCCCCC1 (stereo not drawn)	-14.9	-0.1	0.7	·	-3.1	-1.2	9.9	0.7
54	CC(Nc1nc(-c2ccccc2)nc2ccccc12)c1ccccc1 (stereo not drawn)	-4.6	3.2	5.8	-5.8%	-3.9	6.0	25.4	-0.2
55	CCC1CCCCN1C(=O)c1cc(S(=O)(=O)N2CCOCC2)ccc1C (stereo not drawn)	·	2.3	·	-1.6%	-0.3	-0.3	·	-0.2
56	COc1ccc(NC(=O)CSc2nc3nc(C)cc(C)n3n2)cc1	1.0	-3.7	3.1	·	4.8	-1.1	5.3	0.7
57	COc1ccc(NC(=O)CN(C)C(=O)/C=C/c2cn(-c3ccccc3)nc2-c2ccc(C)cc2)cc1	0.2	1.5	4.7	1.6%	-8.6	6.7	71.7*	0.1
58	O=C(NN/C(=N/S(=O)(=O)c1ccc(Cl)cc1)c1ccccc1)c1cccc(Cl)c1	-5.9	-6.1	?	·	3.1	-0.4	7.3	-5.7

# 5 compounds from above, limited to A1 inh, Beta apoptosis and Calb FLC.
cpd | SMILES | A1 inh | Beta apoptosis | Calb FLC
49 | Cc1ccc(NC(=O)Nc2ccc(Cl)cn2)cc1 | · | · | -14.1
50 | CC(C)(C)c1ccc(C(=O)NCCNC(=O)c2ccco2)cc1 | 0.2 | · | -2.7
51 | c1ccc(OCc2noc(CN3CC[C@@H]4CCCC[C@H]4C3)n2)cc1 | -0.3 | -4.9 | -6.5
52 | CCC(N=c1cc(-c2ccc(OC)cc2)oc2ccc(C)cc12)C(=O)O (stereo not drawn) | -0.9 | 0.7 | 18.8
53 | CCOc1ccccc1CN1CCNC(=O)C1CC(=O)NC1CCCCCC1 (stereo not drawn) | 0.7 | -1.2 | -14.9

# Screening data as filed in PubChem.
